# High-throughput results deposited in PubChem BioAssay by several laboratories.
# Insulin prom inh – TRM-6 insulin promoter activity inhibition. AID 1273. inhibition, % at 2 µM. TRM-6 cells (human fetal islet line), insulin promoter-eGFP reporter, imaging; reporter expression induced with tamoxifen. 130,000 compounds, 0.9% hits;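 active means inhibition above the mean plus 3 SD, with well images judged a real hit on visual review, cut at about 60% in these data, passing the limit was not always enough; inconclusive means inhibition over the cutoff but images rejected on review; inactive means inhibition not above the cutoff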
# RGS16-Gao – RGS16-Galphao interaction regulator (human). bead-based flow cytometry RGS16-Galphao binding, fluorescence; actives lie on both sides. binding response (% of control), % at 10 µM. 220,000 compounds, 0.38% hits. AID 1441;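 active means below 25% or above 175%, edge rows of some plates excepted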;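 further: Galphao activated by GDP with aluminum fluoride before binding; 100% = wells without compound and 0% = beads without RGS; some results beyond the cut were filed as inactive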
# Target sequence (O15492 whole entry, looked up): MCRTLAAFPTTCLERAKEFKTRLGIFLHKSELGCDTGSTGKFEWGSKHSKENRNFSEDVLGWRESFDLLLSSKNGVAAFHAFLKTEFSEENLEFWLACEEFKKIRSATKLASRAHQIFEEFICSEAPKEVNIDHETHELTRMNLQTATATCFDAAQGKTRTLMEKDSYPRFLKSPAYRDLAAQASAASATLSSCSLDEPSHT
# Target sequence (P09471 whole entry, looked up): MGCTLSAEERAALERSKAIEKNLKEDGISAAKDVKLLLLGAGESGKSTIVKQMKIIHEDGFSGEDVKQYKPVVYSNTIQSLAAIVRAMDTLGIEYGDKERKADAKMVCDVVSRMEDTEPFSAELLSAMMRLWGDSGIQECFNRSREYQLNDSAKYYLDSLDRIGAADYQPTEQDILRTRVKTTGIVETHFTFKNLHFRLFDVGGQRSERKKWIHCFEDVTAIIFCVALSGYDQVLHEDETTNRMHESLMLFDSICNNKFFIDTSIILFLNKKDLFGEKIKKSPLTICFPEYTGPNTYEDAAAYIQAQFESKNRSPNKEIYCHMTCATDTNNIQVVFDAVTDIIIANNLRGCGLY
# GALR2 ag – activates the human galanin receptor 2 | O43603 | GALR2-expressing cells, agonist activation read-out | activation, %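 (tested at 5 µM)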 | 140,000 compounds, 0.48% hits | AID 803;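 active means above mean plus 3 SD of all compounds, about 5% in these data, not always enough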;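 further: 0% = vehicle buffer wells and 100% = reference agonist at full effect; tested in CHO reporter cells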
# Target sequence (O43603 whole entry, looked up): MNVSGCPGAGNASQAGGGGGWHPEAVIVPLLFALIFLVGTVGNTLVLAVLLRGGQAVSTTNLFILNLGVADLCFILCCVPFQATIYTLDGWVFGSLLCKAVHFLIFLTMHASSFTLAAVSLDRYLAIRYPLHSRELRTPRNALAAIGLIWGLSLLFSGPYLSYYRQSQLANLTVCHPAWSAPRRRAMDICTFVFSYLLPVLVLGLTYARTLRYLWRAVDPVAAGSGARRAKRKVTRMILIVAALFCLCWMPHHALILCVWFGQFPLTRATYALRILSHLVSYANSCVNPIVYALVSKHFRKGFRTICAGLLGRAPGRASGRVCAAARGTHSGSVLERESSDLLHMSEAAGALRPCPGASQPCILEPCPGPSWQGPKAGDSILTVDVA
# PKD1 inh – PKD1 (human) kinase inhibition; Q15139; PKD1 kinase fluorescence polarization assay; inhibition, %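 (about 10 µM by stock and volumes)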; 200,000 compounds, 0.056% hits;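 active means inhibition of 50% or more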;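 further: controls were vehicle for no effect and a reference inhibitor for full effect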
# HSV replic up – HSV replication enhancement. HSV replication augmentation in cells, fold increase. maximum fold increase. 220,000 compounds, 0.005% hits. AID 1956;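 active means peak rise of 1.5-fold or more in the series; inconclusive means self-fluorescent or not available for retest; tested in PC3 cells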;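 further: first round at 10 µM; read as green reporter fluorescence; hits show the peak of a series up to 25 µM; 1 = signal of infected wells without compound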
# Insulin prom inh cell count – second read-out of Insulin prom inh, no call of its own (marks repeat the call); normalized cell count, %; measured here: cell count, toxicity; reference of the scale not given here;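 cells exposed to compound for 48 h; stained nuclei by imaging scaled within each plate; lower means fewer cells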
# HSV replic up primary fold – recorded beside HSV replic up, whose call it bears; fold increase; compound at 10 µM; measured here: primary screen fold increase 10 uM; tested in PC3 cells;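 GFP signal in the first replicate; 1 = infected wells without compound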
# Starred values were filed as active, the others as inactive; i = inactive; ? = inconclusive; · = no result given. Outcome played no part in choosing rows, and some 1.2% of all compounds hit somewhere here.
molecule,Insulin prom inh,Insulin prom inh cell count,RGS16-Gao,GALR2 ag,PKD1 inh,HSV replic up,HSV replic up primary fold
C/C(=N\NC(=O)C(c1ccccc1)c1ccccc1)c1ccccn1,-75,72,55,-0.9,2,i,0.65
O=C(c1ccc(-c2ccc(Cl)cc2Cl)o1)N1CCOCC1,·,·,99,·,-8,i,0.93
CCOC(=O)N1CCC(NC(=O)c2cccc3c2C(=O)N(c2ccc(OC)cc2)C3)CC1,·,·,92,0.8,-4,i,0.85
CCOC(=O)CSc1nnc(-c2cccnc2)n1Cc1ccccc1,57,138,118,-0.9,-8,i,0.96
NC(=O)C1(N2CCCCC2)CCN(C(=S)NC2CCCC2)CC1,·,·,100,·,-2,i,1
CNC(=S)N1N=C(c2ccc(C)cc2)CC1c1ccc(Cl)cc1 (stereo not drawn),-11,101,96,-1.3,-1,i,0.75
CCCN1CNC(=S)N(c2cccc(C)c2)C1,·,·,97,·,·,i,0.92
COC(=O)Cn1c(=O)c2c(nc(Br)n2CC(=O)OC)n(C)c1=O,-30,138,95,-1.3,-2,i,1.1
Cc1ccc(Oc2ccc(N)cc2)cc1,·,·,99,-0.3,-3,i,0.96
COC(=O)c1ccc(Cl)c(NC(=O)CN2CCC(C)CC2)c1,-50,103,99,1.2,-11,i,0.92
O=C(/C=C/c1ccc2c(c1)OCO2)NCCSCc1cccc(Cl)c1,46,88,100,-2.9,-12,·,·
N#C/C(=C\c1ccc(N2CCCCC2)o1)C(=O)Nc1cccc(Br)c1,-186,144,136,-0.3,33,?,·
COc1ccc(/C=N/NC(=O)CNC(=O)c2ccc(S(=O)(=O)N3CCOCC3)cc2)c(OC)c1,·,·,100,-0.2,-10,i,0.81
COc1ccc(NC(=O)c2ccccn2)cc1S(=O)(=O)N1CCOCC1,-100,133,97,·,-1,i,1
O=C1C2C3C=CC(C3)C2C(=O)N1Nc1ccccc1 (stereo not drawn),·,·,102,·,·,i,0.96
O=C(NN1CC(=O)N(c2cc(Cl)cc(Cl)c2)CC1=O)c1sccc1Cl,·,·,103,·,·,i,0.96
C/C(CC(=O)NC1CCCC1)=N\NC(=O)Cc1csc(N)n1,54,85,68,-0.8,-17,i,1
CCn1nc(C)c(/C=C/C(=O)Nc2ccc(C)cc2C)c1C,-3,86,103,0.8,3,i,0.97
O=C(Nc1ccccc1)OCN1C(=O)c2ccccc2C1=O,23,127,100,-1.9,3,i,0.82
CN(C)c1ccc(C=NCCc2ccc(S(N)(=O)=O)cc2)cc1,·,·,99,·,-7,i,1
COc1ccc(S(=O)(=O)NC(CC(=O)NCCc2ccccc2)c2ccco2)cc1 (stereo not drawn),-46,96,103,-2.8,-3,i,0.82
Fc1cc2[nH]cnc2cc1Cl,·,·,101,·,·,i,0.95
COc1ccc(C(CNC(=O)C2CC(=O)N(Cc3ccc(C)cc3)C2)N(C)C)cc1 (stereo not drawn),·,·,102,-1.3,4,i,1
c1cncc(C(c2nnnn2C2CCCCC2)N2CCCCC2)c1 (stereo not drawn),-133,92,113,·,-4,i,0.97
CCN(Cc1ccccc1)C(c1ccccn1)c1nnnn1C(C)(C)CC (stereo not drawn),-25,111,103,-1.8,6,i,1.1
COc1cc(-c2nc(-c3cccc(C)c3)no2)cc(OC)c1OC,-305,72,81,-2.4,-6,i,0.76
COc1ccc(CNc2nc(-c3cccnc3)nn2C(C)=O)cc1,-31,108,97,·,-4,i,0.91
COc1ccc2c(c1)C(=O)[C@@H](O)[C@H](c1ccc(OC)c(Br)c1)O2,-5,115,107,0.0,1,i,1
COc1ccc(CNC(=O)CCCCCNc2nc(=S)[nH]c3ccccc23)cc1,-14,121,103,·,2,i,0.94
COC(=O)CCS(=O)(=O)c1nc(-c2ccccc2)cc(C(F)(F)F)n1,-8,133,101,11,-4,i,0.87
CCC(=O)N1CCc2cc(S(=O)(=O)CCC(=O)Nc3cccc(F)c3)ccc21,-33,158,98,0.1,5,i,0.78
CC12CC(c3ccccc3O1)N(C(=O)c1ccco1)C(=O)N2c1ccccc1 (stereo not drawn),-4,96,110,-1.2,7,i,0.82
Cc1sc2ncnc(NCC3CCCO3)c2c1C (stereo not drawn),-53,72,94,-0.1,1,i,0.92
Cc1cc(N2C(=O)[C@@H]3[C@H](C2=O)[C@@H]2C[C@H]3C(Br)C2Br)no1 (stereo partly drawn),·,·,100,·,·,i,0.98
CCN(CC)S(=O)(=O)c1ccc(/C=C/C(=O)Nc2c(C)n(C)n(-c3ccccc3)c2=O)cc1,·,·,96,·,-2,i,0.92
c1ccn2cc(CSC3=NCCS3)nc2c1,45,101,95,-2.1,-15,i,0.92
CCOC(=O)c1cnn(-c2cc(C)c3ccccc3n2)c1N,·,·,99,-0.6,4,i,1
CC(=O)Nc1ccc(Br)c(Cl)c1,·,·,99,·,·,i,0.94
O=C(/C(=C/c1ccncc1)n1ccnc1)c1ccc(Cl)cc1Cl,·,·,102,·,·,i,0.9
O=C(Cn1ncn2c(cc3ccccc32)c1=O)NCCC1=CCCCC1,·,·,99,-1.7,-1,i,0.96
CC(=O)c1cccc(S(=O)(=O)Nc2ccc3nc(C)sc3c2)c1,·,·,102,·,-2,i,0.91
COC(=O)C1=C(C)NC(C)=C(C(=O)OC(C)C)C1c1cccc2nonc12 (stereo not drawn),·,·,103,·,·,i,0.97
CC1(C)C(=O)Nc2ccccc2N1C(=O)COc1ncnc2ccccc12,·,·,103,-1.2,3,i,0.9
O=S1(=O)CCN=C2SC3=C(CCCC3)N21,·,·,99,-1.3,8,i,0.93
CNC(=S)N/N=C/c1cn(CCOc2ccccc2OC)c2ccccc12,·,·,103,-1.5,8,·,·
O=C(Nc1ccc(N2CCOCC2)c(Cl)c1)c1ccccc1F,-9,228,99,-2.2,-1,i,0.77
CCOC(=O)C(C(C)C)C(N)Cc1ccc(F)cc1 (stereo not drawn),3,78,102,·,2,i,1
COC(C(=O)Nc1ccc(S(=O)(=O)Nc2cccc3ccccc23)cc1)c1ccccc1 (stereo not drawn),·,·,95,-1.3,-3,i,1
COCc1nnc(NC(=O)c2ccc(NC(C)=O)cc2)s1,56,89,50,-0.9,-6,i,0.88
Cc1sc(NC(=O)c2ccco2)c(C(c2ccc(F)cc2)N2CCN(C)CC2)c1C (stereo not drawn),·,·,87,·,-3,i,0.92
COc1cccc(NC(=O)C(Sc2nnc3ccccn23)c2ccccc2)c1 (stereo not drawn),-25,112,106,-0.8,-6,i,0.95
CCOC(=O)C1CCCN(c2nc3ccccc3nc2C(C#N)C(=O)OCCOC)C1 (stereo not drawn),-15,91,39,-1.1,-2,i,1
Cc1cccc2c1NC1(CCCC1)CC2C (stereo not drawn),·,·,96,·,·,i,0.99
COc1ccc(/C=N/NC(=O)C(=O)N2CCCC2)cc1,-11,166,106,·,-1,i,0.91
O=C1N/C(=N/N=C/c2ccco2)SC1Cc1ccccc1 (stereo not drawn),·,·,102,·,-4,i,0.87
Cc1cccc(NC(=S)N/N=C/c2ccc3c(c2)OCO3)c1,8,74,104,-0.4,8,i,0.84

# More compounds
molecule,Insulin prom inh,Insulin prom inh cell count,RGS16-Gao,GALR2 ag,PKD1 inh,HSV replic up,HSV replic up primary fold
Cc1cc(NC(=O)CSc2nnc(Cc3cccn3C)n2CCc2ccccc2)no1,·,·,98,-2.4,-13,i,0.78
CCOC(=O)C1(CCCc2ccccc2)CCN(Cc2cn(CC)nc2C)CC1,·,·,104,·,0,i,0.85
CC(=O)N1CCN(CC(=O)O)CC1,-13,127,100,·,-3,i,1
CCc1[nH]nc2c1C(c1ccncc1)C(C#N)=C(N)O2 (stereo not drawn),8,56,106,-1.5,-12,i,1
COC(=O)C1=C(C)NC(=O)C1(NS(=O)(=O)c1ccc(NC(C)=O)cc1)C(F)(F)F (stereo not drawn),30,132,96,-2.2,0,i,0.89
O=C(O)c1cccc2cccnc12,13,107,101,-2.6,-9,i,0.96
CC(=O)c1ccc(S(=O)(=O)N2CCCCC2C(=O)O)cc1 (stereo not drawn),·,·,102,·,-2,i,0.93
COc1cc(/C=N/NC(=O)/C(=C/c2ccccc2)CCO)ccc1O,·,·,110,-1.0,-5,i,1
O=C(/C=C/c1ccccc1)Nn1c(-c2cccs2)nc2ccccc2c1=O,-11,163,105,-0.7,-2,i,0.95
O=C(c1ccccc1)c1ccc(OCCn2cnc3ccccc3c2=O)cc1,-18,88,101,-1.1,-9,i,0.96
CCn1c(N2CCN(C(=S)NCCc3ccccc3)CC2)nc2ccccc21,·,·,103,-1.1,0,i,0.85
Cn1c(SCC(=O)NCCc2ccccc2)nnc1-c1ccncc1,·,·,69,-2.0,6,i,0.86
CC(C)(NO)/C(=N\O)c1ccc(Cl)cc1,-32,58,95,-0.8,-1,i,0.99
C[C@H](NC(=O)c1[nH]cnc1C(=O)Nc1ccc(Cl)cc1)C(=O)OC(C)(C)C,·,·,100,·,·,i,0.84
Cc1ccc(S(=O)(=O)N(C)C)cc1NC(=O)COC(=O)C1COc2ccccc2O1 (stereo not drawn),·,·,101,·,0,i,1
CCc1ccc(S(=O)(=O)NC(=S)Nc2ccccc2)cc1,·,·,100,·,2,i,1.2

# Structural class: the entries above with a thiophene ring, fused or not (4)
molecule,Insulin prom inh,Insulin prom inh cell count,RGS16-Gao,GALR2 ag,PKD1 inh,HSV replic up,HSV replic up primary fold
O=C(NN1CC(=O)N(c2cc(Cl)cc(Cl)c2)CC1=O)c1sccc1Cl,·,·,103,·,·,i,0.96
Cc1sc2ncnc(NCC3CCCO3)c2c1C (stereo not drawn),-53,72,94,-0.1,1,i,0.92
Cc1sc(NC(=O)c2ccco2)c(C(c2ccc(F)cc2)N2CCN(C)CC2)c1C (stereo not drawn),·,·,87,·,-3,i,0.92
O=C(/C=C/c1ccccc1)Nn1c(-c2cccs2)nc2ccccc2c1=O,-11,163,105,-0.7,-2,i,0.95

# (cont.)
molecule,Insulin prom inh,Insulin prom inh cell count,RGS16-Gao,GALR2 ag,PKD1 inh,HSV replic up,HSV replic up primary fold
C=CCn1c(SCC(N)=O)nnc1-c1ccccc1O,36,38,106,-3.4,0,i,1.1
COC(=O)Nc1nc2ccc(Sc3ccccc3)cc2[nH]1,-257,4,116,0.6,-4,i,0.55
COc1ccc(/C=C/C(=O)Nc2cc(=O)n(C)c(=O)n2C)cc1,·,·,47,-0.6,-2,i,0.92
Cc1ccc(-c2nc3cnccn3c2Nc2ccc3c(c2)OCO3)cc1,·,·,104,-3.5,1,i,0.84
CC(C)(C)c1ccc(-c2conc2N)cc1,-20,107,100,-0.8,2,i,0.87
Cc1ccc(/C=C2/NC(=O)N(Cc3ccc(Br)cc3)C2=O)o1,-40,84,102,6.1*,-3,i,1.1
COCCN1C(=O)/C(=C/c2ccc(Oc3ccc([N+](=O)[O-])cn3)c(OC)c2)SC1=Nc1ccccc1,-31,115,104,-1.4,-3,i,0.87
CC(C)c1nnc(NC(=O)c2cccc(-n3cnnn3)c2)s1,50,132,97,-2.0,6,i,0.98
O=C(CN1CCCC1)NCC1(c2ccccc2)CCOCC1,32,103,109,-1.1,-7,i,0.91
COc1ccc(-c2cc3nc(C)n(N)c(=O)c3s2)cc1,·,·,90,·,·,i,0.97
Cn1ccc(CC(=O)N2CCC(N3CCC(C(=O)N4CCCC4)CC3)CC2)c1,·,·,102,·,·,i,1
CN1CCN(CC#CCC(O)(c2ccccc2)c2ccccc2)CC1,·,·,104,·,·,i,0.86
NNC(=O)c1ccc(COc2cccc3ccccc23)cc1,·,·,105,-1.0,-8,i,1
CCO[C@@H]1OC(C(=O)N2CCN(Cc3ccc4c(c3)OCO4)CC2)=C[C@H](C2CCCCC2)[C@H]1CCCO,·,·,103,·,-3,i,0.67
CC1=CC(C)(C)N=C(Nc2nc(C)c3cc(C)cc(C)c3n2)N1,-67,122,102,·,-2,i,0.75
CC1=CC(C#N)(C#N)C(C#N)(C#N)C(c2ccccc2)N1 (stereo not drawn),3,98,94,-1.8,-2,i,1.2
CCCC1C(=O)N(Cc2ccccc2)C(=O)CC1C (stereo not drawn),·,·,102,·,·,i,0.88
Cc1ccc(C(C)C)c(OCCCN2C(=O)NC(C)(C)C2=O)c1,37,39,102,-1.4,-1,i,1.1
CC(=O)Nc1ccc(N=Cc2ccc[nH]2)cc1,19,103,100,-0.1,-8,i,0.88
